Menin-MLL FL inh – displaces fluorescein MLL peptide from human menin | AID 1766 | Fluorescence polarization, fluorescein-MLL peptide displacement from menin | FP activity change, % at 61.4 µM | 290,000 tested, under 10 active; inconclusive = falling polarisation curve, or a change in total fluorescence; inactive = total fluorescence flat and polarisation flat or rising; no compound was filed as active; the % refers to the polarisation; negative = inhibition;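 note: % of control where 0% means no effect; inhibitors lower the polarisation; unlabelled MLL peptide was the positive control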
Sfp inh – Sfp phosphopantetheinyl transferase inhibition. AID 1490. Potency, µM, for inactives: max response, negative = inhibition, most hits filed as inhibitors. Biochemical Sfp PPTase activity, qHTS. 3.5% of 310,000 active. Q9F4F7; active = well fitted inhibition curve with a large enough effect; inconclusive = small, poorly fitted or top-dose-only effect, or another doubt; inactive = no such curve, though single readings can be large or run the other way;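 note: the enzyme is Sfp with the accession as filed and its product quenches rhodamine fluorescence; potency is the fitted concentration of half-maximal effect; 0% = enzyme reaction without inhibitor and -100% = no enzyme wells; top concentration of the series not given in the record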
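Fluorescence-quenching assay with 15 nM Sfp, 5 uM rhodamine-CoA and 12.5 uM BHQ-2-labelled ybbR peptide in pH 7.6 Hepes/MgCl2 buffer. Enzyme was pre-incubated with compound for 15 min at room temperature. Rate was taken from the 30-min fluorescence change (525/598 nm).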
PINK1 expr mod – PINK1 expression modulation. PINK1 immunofluorescence, high-content cytometry, 24 h. Potency, µM (doses to about 76.6 µM), inactives show at the top dose activation (PINK1 increase), hits mostly activators. 0.2% of 410,000 active. AID 624263; active = well fitted activation curve with a large enough effect; inconclusive = small, poorly fitted or top-dose-only effect; inactive = flat fitted curve, though single readings scatter; cell line not stated here;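 note: potency is the fitted concentration of half-maximal effect; % of control where 0% means no effect; nearly all actives have a fitted effect of over 65% in size; a mitochondrial uncoupler was the plate control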
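Readout is PINK1 immunofluorescence, quantified alongside mitochondrial, cell and nuclear markers by laser-scanning microplate cytometry. Cells from a stable line were exposed to compound titrations (5 concentrations) for 24 hours, with CCCP controls.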
D2 ag – agonists of human D2 dopamine receptor (beta-arrestin) | 0.084% of 360,000 active | P14416 | activation, % (no concentration beside the values) | DiscoveRx PathHunter D2 beta-arrestin, luminescence, 90 min; 100% = 57 uM dopamine signal; in the data active = activation above about 40%; inconclusive = about 15% to 40%; inactive = below about 15%; note: compound concentration not given in the record; the text of the record calls up to 30% inactive
Target sequence (P14416 whole entry, looked up): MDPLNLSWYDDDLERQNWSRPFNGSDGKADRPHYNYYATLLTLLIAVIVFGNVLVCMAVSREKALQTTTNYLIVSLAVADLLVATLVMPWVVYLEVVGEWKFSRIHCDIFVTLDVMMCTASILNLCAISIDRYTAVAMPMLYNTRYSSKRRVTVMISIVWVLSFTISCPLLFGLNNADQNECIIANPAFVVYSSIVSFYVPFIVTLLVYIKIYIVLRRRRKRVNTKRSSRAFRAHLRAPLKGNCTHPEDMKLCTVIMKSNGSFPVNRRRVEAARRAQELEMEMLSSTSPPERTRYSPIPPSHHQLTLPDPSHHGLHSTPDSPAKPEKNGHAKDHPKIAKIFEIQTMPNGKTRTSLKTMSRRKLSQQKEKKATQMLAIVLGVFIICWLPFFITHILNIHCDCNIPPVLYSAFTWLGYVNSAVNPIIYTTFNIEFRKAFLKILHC
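Agonist mode: compounds alone added to overnight-plated D2 PathHunter cells for 90 min at 37 C, with 57 uM final dopamine (EC100) defining full response. Beta-arrestin recruitment detected by chemiluminescent reagent, read after 1 h at ambient temperature.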
gsp antag – antagonists of gsp mutant (McCune-Albright syndrome); gsp-mutant cells, cAMP HTRF, 30 min; control for the full effect not named in the record; Potency, µM (doses to about 76.9 µM), without a hit: at the top dose activity change, negative = inhibition, actives largely listed as inhibitors; 0.4% of 340,000 active; AID 624288; active = falling curve of any shape with a large fitted effect; inconclusive = falling curve, mostly with a smaller effect; inactive = flat or rising curve; cell line not stated here;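 note: intracellular cAMP measured with PDE inhibitor Ro 20-1724 present during compound exposure; potency is the fitted concentration of half-maximal effect; % is set by controls: 0 for no effect and ±100 for the full control effect; nearly all actives have a fitted effect of over 65% in size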
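G418-selected cells were plated in DMEM/10% FBS for 16-24 h at 37C, then treated with compounds plus the PDE inhibitor […] (300 uM solution added) for 30 min at 37C. Intracellular cAMP was measured by HTRF after 30 min lysis at room temperature.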
gsp ag – agonists of gsp mutant (McCune-Albright syndrome); 0.13% of 340,000 active; AID 624287; gsp mutant cells, cAMP HTRF, 30 min; control for the full effect not named in the record; Potency, µM (top dose mostly 76.9 µM), for the others: top-dose activation (cAMP increase), hits mostly activators; active = well fitted activation curve with a large enough effect; inconclusive = small, poorly fitted or top-dose-only effect, or another doubt; inactive = no such curve, though single readings can be large or run the other way; cell line not stated here;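 note: phosphodiesterase inhibitor Ro 20-1724 added with compounds to block cAMP breakdown; potency is the fitted concentration of half-maximal effect; nearly all actives have a fitted effect of over 60% in size; about a fifth of the inactives were tested at one dose only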
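Cells in DMEM/10% FBS with G418 were pretreated with compounds in DMSO plus […] (300 uM stock) for 30 min at 37C. cAMP was measured by HTRF (cAMP-d2 plus anti-cAMP antibody-K) after 30 min at room temperature.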
ClpP mod – qHTS Assay for Activators of ClpP; ATP-dependent Clp protease proteolytic subunit (Bacillus subtilis (strain 168)), P80244; purified B. subtilis ClpP, FRET peptide cleavage, 20 min; Potency, µM (titrated, usually from 57.5 µM), for inactives: at the highest dose activity change, negative = active; 1.9% of 340,000 active; active = well fitted falling curve with a large enough effect; inconclusive = small, poorly fitted or top-dose-only effect; inactive = no such curve, though single readings can be large or run the other way; note: potency is the fitted concentration of half-maximal effect; the source files actives as falling curves though it sought activators and does not explain the sign; nearly all actives have a fitted effect of over 65% in size; many hits overshoot -100%
Target sequence (P80244 whole entry, looked up): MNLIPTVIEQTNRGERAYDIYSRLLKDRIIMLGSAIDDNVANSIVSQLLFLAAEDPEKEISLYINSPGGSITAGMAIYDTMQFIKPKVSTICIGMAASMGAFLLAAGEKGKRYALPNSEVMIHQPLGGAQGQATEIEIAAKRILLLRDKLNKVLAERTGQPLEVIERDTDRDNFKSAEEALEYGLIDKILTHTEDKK
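Purified B. subtilis ClpP, 10 microg/mL final in Tris/HCl pH8 with KCl, BSA, glycerol and Tween-20, cleaved an Abz/nitrotyrosine-quenched decapeptide. Fluorescence (ex 320, em 430) was read at 0 and 20 min at room temperature. Delta was normalized to 5.8 microM ADEP and DMSO/no-enzyme controls.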
* = called active by the depositor; ? = inconclusive; · = not tested or not shown; & = joins results of further samples; [ ] = remark or other dose. Outcome played no part in choosing rows; about 5.1% have a hit in one of these screens.

SMILES	Menin-MLL FL inh	Sfp inh	PINK1 expr mod	D2 ag	gsp antag	gsp ag	ClpP mod
CCOc1cccc(=O)c2c(C)n(C)c(C)c12	?	-12.4%	0.7%[38.3 µM]	-1.0	-7.5%	20.6%	-2.1%
Cc1ccc(-n2c(-c3ccccc3)n[nH]c2=S)cc1	2.3	79.4µM*	-1.9%	-0.1	-7.1%	?	-8.6%
CCOc1cc(/C=N/OC(C)=O)ccc1OCc1ccccc1	0.6	2.2%	-0.7%	-3.2	·	2.2%[15.4 µM]	·
CCC(=O)Nc1ccc2nc(C)n(Cc3ccccc3Cl)c(=O)c2c1	1.5	-5.7%	-0.1%	-4.0	-1.8%	0.0%	-2.1%
CC(NC(=O)CSc1nnc(CC(=O)Nc2ccc(Cl)c(Cl)c2)n1C)c1ccccc1 (configuration not stated)	0.7	-6.3%	4.6%[38.3 µM]	-4.1	1.8%	-0.6%	-0.8%
COc1ccc2c(CC(=O)OCC(=O)Nc3ccccc3[N+](=O)[O-])coc2c1	6.9	-5.7%	1.9%	2.8	-3.8%	-33.5%[inhibitor]	-1.6%
Cn1nnnc1SCC(=O)N1N=C(c2ccc(Cl)cc2)CC1c1ccco1 (configuration not stated)	·	·	3.1%	-2.9	-11.0%	-28.0%	-2.0%
Cc1nn(C)c(NC(=O)c2ccc([N+](=O)[O-])cc2)c1Cl	2.0	21.9%	-0.4%	-0.4	3.5%	2.5%[15.4 µM]	-1.5%
Cc1cc2c(cc1S(N)(=O)=O)S(=O)(=O)CCC2	1.8[24.8 µM]	9.5%	7.2%	-4.6	1.2%	·	2.1%
O=[N+]([O-])c1ccc2nc(-c3ccc(OC(F)F)cc3)cn2c1	-1.9	-0.3%	3.5%	5.3	·	16.6%[15.4 µM]	·
CCN(CCCNC(=O)C1CCC(=O)N1C1CCCC1)c1cccc(C)c1 (configuration not stated)	-4.4	-2.6%	0.0%	-4.5	-15.3%	5.4%	-4.7%
Cc1cc(=O)oc2c(C)c(OCC(=O)NC3CC(C)(C)NC(C)(C)C3)ccc12	·	9.6%	-1.6%	0.3	3.7%	6.8%	·
COCCCNC(=S)Nc1ccc(N2CCCCC2)cc1	0.1	-10.6%	-0.8%	-0.6	-5.7%	-4.1%	1.0%
CCN(C(=O)CSc1nncs1)c1c(N)n(Cc2ccccc2)c(=O)[nH]c1=O	-1.4	5.6%	-0.2%	0.1	2.6%	?	-0.4%
CNC(=O)CSc1nc2cccnc2n1C1CCCCC1	0.1	5.1%	3.3%	-3.4	6.9%	-4.7%	-7.2%
COc1ccc(-c2noc(=O)[nH]2)cc1	0.0	15.2%	4.4%	-3.2	-13.7%	?	1.2%
Cc1n[nH]c(=S)n1/N=C/c1ccc(OCc2ccc(Cl)cc2)cc1	-1.9	-24.2%	-0.8%	-2.0	-8.2%	27.5%	-0.1%
COc1ccccc1Nc1ncccc1C(=O)O	2.7	-2.0%	-0.2%	-0.4	-4.8%	5.7%	-2.4%
CCc1cccc(N(C(=O)c2csnn2)C(C(=O)NC2CCCC2)c2cccnc2)c1 (configuration not stated)	2.5	6.6%	-1.9%	-1.3	8.1%	-10.7%	·
O=C(O)CSCc1cnn(-c2ccccc2)c1-n1cccc1	2.9	-24.0%	-3.2%[38.3 µM]	-1.4	-26.5%	-12.4%	0.4%
Nc1ccc(S(=O)(=O)N2CCCC2)cc1	-2.3	-8.8%	2.1%	-3.9	3.9%	26.9%	-0.5%
O=C1C(Cc2ccccc2)Nc2ncnc(N3CCOCC3)c2N1Cc1ccc(Br)cc1 (configuration not stated)	·	·	2.6%&1.1%	-7.4&-15.7	-9.5%	·	-2.3%&-2.1%
O=C(c1ccc2c(c1)[nH]c(=S)n1c3ccccc3nc21)N1CCN(c2ncccn2)CC1	-2.4	11.9%	2.5%	-4.3	11.1%	?	3.8%
CCCc1cc(=O)oc2cc(C)cc(OCC(=O)NC3CC3)c12	0.2	23.4%	5.2%	-3.3	6.0%	24.4%	3.8%
COc1ccc(C2CC(=O)c3cc(OC)c(OC)cc32)cc1OC (configuration not stated)	5.0	-5.3%	3.6%	-2.5	-3.9%	-7.8%[15.4 µM]	-21.2%
The list goes on:
SMILES	Menin-MLL FL inh	Sfp inh	PINK1 expr mod	D2 ag	gsp antag	gsp ag	ClpP mod
COc1ccc(-c2nc3c4ccccc4ccn3c2Cc2ccccc2)cc1OC	·	·	1.7%	-2.0	·	·	4.7%
CCc1ccc(CN(C)C(=O)C2CCC(=O)N(CCc3ccc(OC)cc3)C2)nc1 (configuration not stated)	5.1	9.8%	0.2%	3.4	-1.8%	?	-2.3%
O=C(Nc1nc2c(F)cccc2s1)c1ccc([N+](=O)[O-])o1	0.3	0.2%	-0.9%	-0.6	-9.6%	-12.7%	-1.5%
CCc1ccc(N/C(SCc2cccc(F)c2)=C(/C#N)C(=O)NCc2ccco2)cc1	1.6	10.8%	12.1%[38.3 µM]	-1.0	-9.9%	4.4%	-4.0%
CCOC(=O)C1C(=O)CC(C)(O)C(C(=O)OCC)C1/C=C/c1ccccc1 (configuration not stated)	20.8	9.8%	8.1%	0.8	-18.7%	?	-4.1%
Cc1cc(C)c2c(-n3cccc3)c(C(=O)NNS(=O)(=O)c3ccccc3)sc2n1	5.8	-8.4%	-2.3%	-5.4	5.4%	11.0%	-0.1%
CSc1nnc(N2C(=O)C(O)=C(C(=O)c3ccco3)C2c2cccc(Cl)c2)s1 (configuration not stated)	·	6.31µM*	2.8%	-1.0	9.4%	-10.2%	1.5%
O=C(NC1CC1)c1ccc(-c2ccc3nccn3c2)cc1	·	·	-0.2%	-3.3	·	·	-18.9%
CC(Sc1nnc(-c2ccco2)n1C)C(=O)Nc1ccc(N2CCOCC2)cc1 (configuration not stated)	·	·	4.3%	-5.4	-8.6%	9.6%[15.4 µM]	·
Cc1cccc(C)c1NC(=O)CN(C)C(=O)c1ccc2c(=O)n3c(nc2c1)CCC3	·	·	3.0%	-3.4	9.3%	-4.8%	-6.6%
Cc1ccc(S(=O)(=O)Nc2cncnc2NS(=O)(=O)c2ccc(C)cc2)cc1	·	·	-2.5%	-1.3	8.3%	-25.1%	·
O=C(NCCS(=O)(=O)NC1CCCCC1)c1ccccc1	·	·	-2.2%	-4.4	5.9%	-7.5%	-1.8%
Cc1ccc(-n2nc3c(=O)n(CC(=O)NCc4cccs4)nc(C)c3c2C)cc1	-1.8	6.7%	1.3%	-1.4	-0.6%	24.3%	0.0%
CSc1ccc(NC(=O)NCc2ccccc2)cc1	1.4	9.8%	0.9%	-2.2	-8.4%	12.4%[15.4 µM]	-8.0%
COc1cc2c(cc1OC)CN(C(=O)c1cc(COc3ccccc3SC)on1)CC2	·	·	2.6%	7.6	·	-72.9%[inhibitor]	-9.9%
COc1ccc2c(c1)C(c1ccccc1)NC(=O)C2 (configuration not stated)	·	·	0.3%	-2.2	-4.5%	-25.0%	-4.6%
Cc1[nH]c2ccccc2c1SCC(=O)N1CCN(c2ccccc2)CC1	1.2	3.1%	0.2%	-2.5	-8.1%	-32.0%[inhibitor]	-1.8%
O=C(O)C1CCCN1S(=O)(=O)c1ccc2c(c1)CCC2 (configuration not stated)	2.2	8.7%	·	-1.8	0.3%	29.8%	1.2%
CC(C(=O)NC1CCCC1)N(c1ccc(Oc2ccccc2)cc1)S(C)(=O)=O (configuration not stated)	0.1	10.3%	-0.3%	-1.4	·	-5.3%[15.4 µM]	·
COC(=O)CCC(=O)Nc1nccs1	-0.8	1.6%	3.3%	1.1	13.1%	10.5%[15.4 µM]	·
CCCCn1c(-c2nn(C)cc2Cl)n[nH]c1=S	2.2	-13.0%	-1.7%	-2.1	-8.2%	-27.5%	-3.3%
CC(CC(=O)Nc1ccc2c(c1)c(=O)n(C)n2Cc1ccc(F)cc1)c1ccccc1 (configuration not stated)	·	·	4.2%	1.4	·	·	4.9%
COc1ccc(NC(=O)Nc2ccon2)cc1OC	1.0	9.7%	-0.1%	-0.1	5.7%	-25.8%	-0.7%
CCOc1ccc(CNC(=O)C2CCCN(S(C)(=O)=O)C2)cc1OC (configuration not stated)	-0.8	-2.9%	2.6%[38.3 µM]	-0.7	10.5%	11.2%	0.1%
Cc1ccc2nc(COC(=O)c3cnccn3)cc(=O)n2c1	·	·	0.2%	-5.1	6.1%	?	7.8%
New compounds follow
SMILES	Menin-MLL FL inh	Sfp inh	PINK1 expr mod	D2 ag	gsp antag	gsp ag	ClpP mod
COc1ccc(C(=S)N2CCN(c3ccccc3C)CC2)cc1OC	·	·	5.5%	-0.7	-1.4%	12.0%[15.4 µM]	0.0%
CC(=O)Nc1ccc(SCC(=O)Nc2oc(C)c3c(C)n[nH]c(=O)c23)cc1	·	·	0.6%	-8.1	9.8%	13.6%[15.4 µM]	0.0%
CCN(CC(=O)Nc1c(F)cccc1F)C(=O)CCc1nc2cc(S(=O)(=O)N3CCOCC3)ccc2n1C	·	·	-1.7%	-5.2	-5.9%	-10.3%	1.9%
CCc1ccc(S(=O)(=O)Nc2cc3c(cc2N2CCOCC2)n(C)c(=O)c(=O)n3C)cc1	2.1	15.4%	-0.4%&-0.4%	-4.4	-5.9%	?	-6.4%&-9.3%
CC(=O)N/C(=C\c1ccccc1)C(=O)OCc1cc(C)ccc1C	-3.9	12.7%	0.1%	-2.3	12.8%	-1.0%[15.4 µM]	·
O=C(O)c1cccc(N(CCO)CCO)c1	-0.6	11.9%	1.8%	1.3	6.0%	7.5%	?
COc1ccc(NC(=O)c2cccc(N3C(=O)C4C5CCC(C5)C4C3=O)c2)cc1 (configuration not stated)	·	18.8%	-1.4%	6.0	-11.7%	2.5%[15.4 µM]	-2.7%
O=C(Cn1c(=O)c2c(ncn2Cc2ccccc2)n(Cc2ccccc2)c1=O)N1CCc2ccccc21	0.0	4.2%	7.5%[38.3 µM]	-4.4	-8.5%	4.2%	0.1%
COc1cccc(OCC(=O)NC2CCCCCC2)c1	·	·	0.8%	0.6	4.2%	7.6%	2.4%
COc1ccc2c(-c3ccc(S(N)(=O)=O)cc3)c(-c3ccc(S(C)(=O)=O)cc3)sc2c1	·	·	-1.0%	-4.1	-18.5%	·	5.1%
O=C(c1nc2ccccn2c1CNCCCn1ncc2ccccc21)N1CCOCC1	3.9	6.4%	-0.5%	-2.2	8.3%	6.7%	-7.0%
O=C1NC2(CCCCC2)N=C1c1ccc(Br)cc1	2.3	9.8%	1.4%	-2.8	6.7%	-17.1%	-0.2%
Cc1ccc(NC(=O)c2csc(-c3ccccc3)c2C)cc1	3.4	7.2%	9.3%	-3.6	1.9%	-8.4%	-2.1%
